NS1 function inh – qHTS Assay for Inhibitors of Influenza NS1 Protein Function; S. cerevisiae slowed by influenza A NS1, growth recovery by OD600; Potency, µM (highest dose often 46.1 µM), for the others: at the highest dose activity, positive = more growth; actives 0.4% (n = 270,000); further: actives are rising curves; nearly all actives have a fitted effect of over 50% in size
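S. cerevisiae expressing influenza A NS1, grown in glucose, washed, then diluted 1:100 into pH 6.0 -URA galactose medium with 23 nl compound. Growth recovery read as OD600; NS1-free strain serves as control.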
Cruzain inh noDet – qHTS Assay for Promiscuous and Specific Inhibitors of Cruzain (without detergent); purified cruzain, Z-FR-AMC fluorescence, no detergent; actives 2.3% (n = 200,000); Cruzipain (Trypanosoma cruzi), P25779; Potency, µM, without a hit: max response, negative = inhibition, actives largely listed as inhibitors; active means well fitted curve in the direction sought with a large enough effect; inconclusive means small, poorly fitted or top-dose-only effect, or another doubt; inactive means no such curve, though single readings can be large; an effect the other way counts as inactive or inconclusive;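 further: plate controls were enzyme without inhibitor for no effect and buffer without enzyme for full effect; nearly all actives have a fitted effect of over 40% in size; top concentration of the series not given in the record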
Target sequence (P25779 123-467 limits assumed): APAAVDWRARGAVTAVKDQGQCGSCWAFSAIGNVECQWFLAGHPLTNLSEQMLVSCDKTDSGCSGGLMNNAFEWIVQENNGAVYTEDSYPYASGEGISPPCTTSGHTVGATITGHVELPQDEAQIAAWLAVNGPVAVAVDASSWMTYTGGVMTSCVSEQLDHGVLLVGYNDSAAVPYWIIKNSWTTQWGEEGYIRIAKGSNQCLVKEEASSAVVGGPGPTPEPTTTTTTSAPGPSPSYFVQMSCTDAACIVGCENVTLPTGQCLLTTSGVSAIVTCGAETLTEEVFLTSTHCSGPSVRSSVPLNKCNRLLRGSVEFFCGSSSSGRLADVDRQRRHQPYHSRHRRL
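Detergent-free condition (0.00005% Triton X-100) in acetate buffer pH 5.5 with DTT. 1.5 nM enzyme and compound were pre-mixed 15 min, then 2 uM Z-FR-AMC substrate added; reaction progress from fluorescence change between first and third reads (60 s).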
LASV entry inh – qHTS for Inhibitors of binding or entry into cells for Lassa Virus; Lassa virus pseudotype entry inhibition, cell reporter; control for the full effect not named in the record; actives 1.2% (n = 300,000); Potency, µM (titrated, usually from 37.9 µM), inactives show at the highest dose activity change, negative = inhibition, most hits filed as inhibitors; active means well fitted inhibition curve with a large enough effect; inconclusive means small, poorly fitted or top-dose-only effect, or effect the other way; inactive means flat fitted curve, though single readings scatter; tested in HEK293 cells; further: on the % scale 0 is the no-effect control and ±100 the full control effect; nearly all actives have a fitted effect of over 50% in size; luciferase read-out
Marburg entry inh – qHTS for inhibitors of binding or entry into cells for Marburg Virus; Potency, µM (highest dose often 37.8 µM), for inactives: at the top dose activity change, negative = inhibition, hits mostly inhibitors; actives 1.8% (n = 300,000); Marburg virus pseudotyped entry inhibition, cell reporter; control for the full effect not named in the record; about a third of the inactives were read at about 46 µM; active = well fitted inhibition curve with a large enough effect; inconclusive = small, poorly fitted or top-dose-only effect, or effect the other way; inactive = flat fitted curve, though single readings scatter; tested in HEK293 cells; about a fifth of its hits are not listed in these tables; further: on the % scale 0 is the no-effect control and ±100 the full control effect; luciferase read-out
Cruzain Triton – qHTS Assay for Promiscuous and Specific Inhibitors of Cruzain (with detergent); Cruzipain (Trypanosoma cruzi), P25779; purified cruzain, Z-FR-AMC fluorescence, 0.01% Triton; Potency, µM, for inactives: max response, negative = inhibition, most hits filed as inhibitors; actives 0.43% (n = 200,000); active means well fitted curve in the direction sought with a large enough effect; inconclusive means small, poorly fitted or top-dose-only effect, or another doubt; inactive means no such curve, though single readings can be large; an effect the other way counts as inactive or inconclusive;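 further: plate controls were neutral wells for no effect and buffer without enzyme for full effect; nearly all actives have a fitted effect of over 40% in size; top concentration of the series not given in the record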
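Cysteine protease activity tested under reducing, mildly acidic conditions (100 mM sodium acetate pH 5.5, 5 mM DTT) plus 0.01% Triton X-100. Cruzain 1.5 nM; substrate Z-FR-AMC 2 uM; 15 min compound preincubation at room temperature.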
RE007 growth inh – qHTS Assay for Inhibitors of the HIV-1 protein Vpr; S. pombe RE007 Vpr strain, BacTiter-Glo ATP luminescence, 24 h; control for the full effect not named in the record; Potency, µM (series often up to 92.2 µM), for the others: top-dose activity change, negative = less growth; actives 0.21% (n = 360,000); AID 651644, 2012; active = well fitted falling curve with a large enough effect; inconclusive = small, poorly fitted or top-dose-only effect; inactive = no such curve, though single readings can be large or run the other way;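 further: on the % scale 0 is the no-effect control and ±100 the full control effect; nearly all actives have a fitted effect of over 50% in size; the assay follows cell death caused by Vpr and the record does not say whether a fall means rescue or toxicity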
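Fission yeast strain RE007, carrying one chromosomally integrated HIV-1 vpr copy, was seeded at OD 0.01 in PMG+AL medium with 23 nL pinned compound. After 24 h at 30 °C and 99% humidity, viability was read by BacTiter-Glo luminescence.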
SARS PLpro yeast – qHTS of Yeast-based Assay for SARS-CoV PLP | S. cerevisiae expressing SARS-CoV PLpro, growth rescue; control for the full effect not named in the record | Potency, µM (titrated, usually from 32.9 µM), without a hit: at the highest dose activity, positive = growth rescue | actives 0.19% (n = 330,000) | AID 485353, 2010; further: 0% is about no effect; nearly all actives have a fitted effect of over 55% in size; growth read by luminescence after 48 h
StopGo reporter – High Throughput Screening for Foot and Mouth Disease Virus Antivirals; human cells with a luciferase reporter of 2A StopGo recoding; control for the full effect not named in the record; Potency, µM (doses to about 57.9 µM), for the others: top-dose signal change, negative = less light; actives 1.2% (n = 410,000); AID 1159524, 2015; active = well fitted falling curve with a large enough effect; inconclusive = small, poorly fitted or top-dose-only effect; inactive = no such curve, though single readings can be large or run the other way; tested in HEK293T cells; further: on the % scale 0 is the no-effect control and ±100 the full control effect; nearly all actives have a fitted effect of over 45% in size; luciferase light after 4 h
* marks the source's active call; other numbers are inactive results; ? = inconclusive; / = no result given; & = joins results of further samples; [ ] = remark or other dose. Unless noted, the call rests on the fitted dose curve; in most records, active means well fitted rising curve with a large enough effect; inconclusive means small, poorly fitted or top-dose-only effect; inactive means no such curve, though single readings can be large or run the other way. Potency means the concentration at half of the fitted maximal effect.

no.	Structure	NS1 function inh	Cruzain inh noDet	LASV entry inh	Marburg entry inh	Cruzain Triton	RE007 growth inh	SARS PLpro yeast	StopGo reporter
1	Cc1nn(CC(=O)Nc2ccc3c(c2)OCCO3)c(C)c1[N+](=O)[O-]	/	/	1%	-9%	/	?	-1%	10%
2	CC(C)N(CCn1c(=S)[nH]c2ccccc2c1=O)C(C)C	1%	-10%	-2%	-1%[46.1 µM]	3.2%	-20%	2%	-20%
3	CSc1nc(N2CCOCC2)c2sccc2n1	-2%	/	/	/	/	-4%	1%	0%
4	Cc1ccccc1-c1nnc(SCC(=O)N2CCCC2)o1	-22%	/	-20%	16%[46.1 µM]	/	-3%	-2%	24%
5	Cc1ccc2c(c1)/C(=N/N1C(=O)c3ccccc3C1=O)C(=O)N2	-4%	3%	-4%	-2%	-3.2%	21%	-3%	-7%
6	Cc1ccc(-c2nc3cccnc3s2)cc1NS(=O)(=O)c1ccc2c(c1)CCCC2	22%	?	2%	41%	-3.6%	2%	-1%	84%[activator]
7	CCOC(=O)c1c(CC(C)C)csc1/N=C/C1C(=O)CCCC1=O	2%	/	4%	3%[46.1 µM]	/	-29%	-2%	-22%
8	Cc1c(-c2ccccc2)c(=O)oc2ccc(OC(=O)N3CCOCC3)cc12	/	3%	20%[46.1 µM]	/	-3.1%	/	/	7%
9	CC(=O)Nc1ccc(N=Nc2ccccc2)cc1[N+](=O)[O-]	/	/	?	10%	/	4%	/	62%[activator]
10	CC(Sc1nnc2c(n1)C1(C)CCC2C1(C)C)C(=O)Nc1ccccc1 (stereo not given)	-14%	8%	?	-12%	-0.6%	10%	6%	-3%
11	O=C(O)c1ccc(CS(=O)(=O)c2ccc(Br)cc2)cc1	-7%	/	/	/	/	9%	3%	-4%
12	COc1cc(-c2nc(C(F)(F)F)c(OC)o2)cc(OC)c1OC	-18%	3%	?	10%	1.1%	/	13%	-10%
13	Cn1c(C(=O)N2CCCC(C(=O)NCCN3CCOCC3)C2)cc2sccc21 (stereo not given)	-1%	-4%	14%	13%	2.9%	10%	0%	/
14	COc1ccc(-n2nc(C(=O)NCC(=O)N3CC(C)CC(C)C3)c3ccccc3c2=O)c(OC)c1 (stereo not given)	11%	/	0%[46.1 µM]	1%[46.1 µM]	/	-12%	0%	11%
15	Cc1ccc(-c2nc3ncccc3o2)cc1NC(=O)c1ccc2c(c1)OCO2	/	/	-1%	2%[46.1 µM]	/	0%	/	-11%
16	Cc1cc([N+](=O)[O-])nn1CCCC(=O)Nc1sc2c(c1C(N)=O)CCC(C)C2 (stereo not given)	10%	-2%	11%	1%	-3.6%	6%	8%	0%
17	CCCCN(C)S(=O)(=O)c1cc2c(cc1Br)CCN2C(=O)C1CC1	/	/	?	?	/	-3%	/	5%
18	CCN(CC(=O)NCc1cccs1)C(=O)CCCOc1ccc(C(C)(C)C)cc1	/	/	?	?	/	-5%	-8%	-19%
19	CCOC(=O)C(Cc1ccccc1)NC(=O)CNC(=O)CNC(=O)OCc1ccccc1 (stereo not given)	0%	19%	25%	-24%	-4.9%	-5%	12%	17%
20	Cc1ccc(-c2cc(C(=O)N/N=C/c3ccco3)[nH]n2)cc1	-13%	-4%	-13%	1%	-5.1%	24%	-10%	?
21	Cc1ccc(NS(=O)(=O)c2cc3[nH]c(=O)c(=O)[nH]c3cc2C)c(C)c1	6%	/	/	/	/	12%	-1%	-5%
22	CCOc1ccc(NC(=O)C2CCN(C(=O)N3CC(C)Oc4ccc(Cl)cc43)CC2)cc1 (stereo not given)	/	-29%	2%[46.1 µM]	/	-0.1%	/	/	-25%
23	Nc1ccc2oc(-c3cccc(Br)c3)nc2c1	10%	-4%	?	-12%	-1.1%	-15%	-8%	12%
24	CCc1cc2cc(C(=O)Nc3ccc(C)cc3)sc2s1	4%[9.22 µM]	-30%	?	-3%	-2.6%	11%	8%	28%
25	COc1cc(-c2nc3ccc(Cl)cn3c2Nc2ccc3c(c2)OCO3)ccc1O	/	?	?	-1%[46.1 µM]	-9.0%	/	/	-18%
26	Cc1ccsc1/C=N/NC(=O)CNC(=O)c1ccco1	/	/	?	?	/	10%	2%	14%
27	COc1ccccc1NC(=O)N1CCCC1C(=O)NCc1ccccc1F (stereo not given)	0%	10%	0%	2%	4.8%	17%	-3%	-3%
28	O=C(Cc1ccc(-n2c(=S)[nH]c3ccccc3c2=O)cc1)N1CCN(c2ccccc2)CC1	21%	2%	-1%	10%	2.1%	8%	0%	?
29	CCOc1ccc(-n2c(SCC(=O)Nc3cc(C(=O)O)ccc3Cl)nc3ccccc3c2=O)cc1	11%	/	8%	22%[46.1 µM]	/	4%	0%	-25%
30	Cc1ccc(CCN2C(=O)c3ccccc3C2C(=O)NCc2cccnc2)cc1 (stereo not given)	/	/	12%	?	/	5%	-2%	10%
31	CSc1nc(Oc2ccc(C)cc2)cc(C(F)(F)F)n1	14%	2%	-1%	2%[46.1 µM]	1.0%	-4%	10%	-6%
32	CS(=O)(=O)c1ccc2nc(NC(=O)c3ccc(=O)[nH]c3)sc2c1	7%	/	0%	-5%	/	3%	-1%	5%
33	N#Cc1c(N)nc2c(c1-c1ccccc1)CCCC2	-18%	-17%	3%	-1%	4.4%	3%	0%	-21%
34	COc1ccccc1Cn1c(C)nc2ccccc21	-5%	/	3%	-5%[46.1 µM]	/	-2%	1%	?
35	CCOc1ccc2oc(-c3ccccc3)c(C(=O)N(C)C)c2c1	-4%	5%	4%	?	-7.0%	0%	-22%	/
36	C(=N\Nc1ccccc1)/c1nc2ccccc2s1	3%	/	/	/	/	-5%	-1%	-1%
37	COc1ccccc1CNC(=O)CN1N=C(c2ccccc2)CCC1=O	/	0%	-3%[46.1 µM]	/	-0.3%	/	/	0%
38	CCc1cc(-c2[nH]ncc2-c2ccc(OC)cc2)c(O)cc1O	2%	/	?	?	/	-9%	1%	11µM*
39	CCN(CC)C(=O)CSCC(=O)Nc1ccccc1	-7%	17%	13%	16%	0.8%	0%	1%	/
40	Cc1nn(C)cc1CN(C)C(=O)c1nn2c(c1Cl)NC(c1cccs1)CC2C(F)(F)F (stereo not given)	-5%	?	3%	1%&-6%	-0.2%	1%	2%	/
41	CCOc1ccc(C(=O)N2CCN(S(=O)(=O)c3cccs3)CC2)c(OCC)c1	11%	/	/	/	/	0%	-1%	-21%
42	COc1ccc(CCN2CC(C(=O)NCCCn3nc(C)cc3C)CCC2=O)cc1 (stereo not given)	2%	/	/	/	/	2%	0%	8%
43	CN(c1ccc(C(=O)Nc2ccc3c(c2)OCO3)cc1)S(C)(=O)=O	4%	/	/	/	/	-21%	-7%	9%
44	Cc1sc(NC(=O)/C=C/c2ccc3c(c2)OCO3)nc1-c1ccccc1	?	-90%	?	?	-3.7%	-16%	21%	6.3µM*
45	CCOC(=O)c1c(NC(=O)CCC(=O)O)sc2c1CCCCC2	-22%	28%	20%	-3%	-4.6%	-23%	-6%	?
46	CCOC(=O)c1ccc(NC(=O)CCc2nc(-c3ccc(C)cc3)no2)cc1	-6%	?	?	-1%	-3.6%	2%	0%	?
47	O=C(Cn1nc(C(=O)O)c2ccccc2c1=O)Nc1cccc(S(=O)(=O)N2CCCCCC2)c1	/	/	-2%[46.1 µM]	25%	/	14%	0%	?
48	O=C(CNC(=O)c1ccncc1)N/N=C/c1ccc(Br)cc1	-2%	/	/	/	/	9%	1%	-10%
49	O=C(c1ccncc1)N1CCN(S(=O)(=O)c2ccc(F)cc2)CC1	5%	/	/	/	/	-7%	-9%	-8%
50	COc1cccc(/C=C/C(=O)c2ccc(NS(=O)(=O)c3ccc(C)cc3)cc2)c1	2%	?	?	?	-3.6%	-8%	6%	-24%

(listing goes on)
no.	Structure	NS1 function inh	Cruzain inh noDet	LASV entry inh	Marburg entry inh	Cruzain Triton	RE007 growth inh	SARS PLpro yeast	StopGo reporter
51	COc1ccc(/C=N/NC(=O)c2nnn(-c3nonc3N)c2CN(C)c2ccccc2)cc1	3%	/	-25%[46.1 µM]	-1%[46.1 µM]	/	-3%	-5%	-6%
52	CC(=O)NC(=S)Nc1cc(C(F)(F)F)ccc1N1CCOCC1	-1%	10%	3%	?	-4.1%	-8%	21%	-27%
53	O=C(c1ccc2c(c1)OCO2)N1CCN(c2ccccc2F)CC1	10%	3%	?	?	0.3%	3%	2%	20%
54	COC(=O)c1cccc(NC(=O)Cn2cnc3ccccc3c2=O)c1	-2%	-6%	9%	-1%	-0.1%	5%	4%	21%
55	CC(C)[C@H](NC(=O)N1CCn2c1nc1ccccc12)C(=O)N[C@H](Cc1ccccc1)C(=O)O	24%	/	/	/	/	-10%	?	-23%
56	CC(C)c1ccc(N(C(=O)C(F)(F)F)C(C(=O)NC2CCCCC2)c2ccncc2)cc1 (stereo not given)	-1%	-3%	?	7%	1.1%	10%	3%	/
57	COc1ccccc1CNC(=O)c1cc(C(=O)CC(C)C)c[nH]1	3%	/	/	/	/	-14%	1%	-8%
58	Nc1nonc1C(=Nc1ccccc1)NO	-3%	6%	0%	-2%	0.7%	2%	?	11%
59	Cc1ccccc1N1CCN(Cc2ccc3c(c2)OCO3)CC1	-5%	/	-5%	?	/	-27%	?	-18%
60	CCn1c(SCC(=O)c2ccc3c(c2)Cc2ccccc2-3)nnc1-c1ccc(N)cc1	?	15%	-1%	-5%	-2.4%	20%	2%	-2%

Compound activity: PubChem BioAssay, National Center for Advancing Translational Sciences (NCATS)
